# NS1 inh: inhibitors of influenza NS1 protein function | S. cerevisiae slowed by influenza A NS1, growth recovery by OD600 | Potency, µM (doses to about 46.1 µM), without a hit: top-dose activity, positive = more growth | hit rate 0.4% among 270,000; active means well fitted rising curve with a large enough effect; inconclusive means small, poorly fitted or top-dose-only effect; inactive means no such curve, though single readings can be large or run the other way; note: nearly all actives have a fitted effect of over 50% in size
#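 Read-out: OD600 growth recovery of NS1-expressing budding yeast. Cells grown overnight at 30C in -URA glucose medium, washed, resuspended and diluted 1:100 in 2% galactose assay medium, pH 6.0. Same strain lacking NS1 served as positive control.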
# RE007 growth inh: less growth of the S. pombe RE007 Vpr strain; S. pombe RE007 Vpr strain, BacTiter-Glo ATP luminescence, 24 h; control for the full effect not named in the record; Potency, µM (top dose mostly 92.2 µM), for inactives: at the highest dose activity change, negative = less growth; hit rate 0.21% among 360,000; AID 651644; active = well fitted falling curve with a large enough effect; inconclusive = small, poorly fitted or top-dose-only effect; inactive = no such curve, though single readings can be large or run the other way;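 note: % is set by controls: 0 for no effect and ±100 for the full control effect; nearly all actives have a fitted effect of over 50% in size; the assay follows cell death caused by Vpr and the record does not say whether a fall means rescue or toxicity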
#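 Fission yeast RE007 carrying one integrated HIV-1 vpr copy, seeded at OD 0.01 in PMG+AL medium with 23 nL pinned compound. Grown 24 h at 30 degrees; viability read by BacTiter-Glo luminescence after 5 min.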
# Cruzain inh Det: inhibitors of Trypanosoma cruzi cruzain with detergent. P25779. purified cruzain, Z-FR-AMC fluorescence, 0.01% Triton. Potency, µM, for inactives: max response, negative = inhibition, actives largely listed as inhibitors. hit rate 0.43% among 200,000. AID 1478;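 note: plate controls were neutral wells for no effect and buffer without enzyme for full effect; nearly all actives have a fitted effect of over 40% in size; top concentration of the series not given in the record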
# Target sequence (P25779 123-467 limits assumed): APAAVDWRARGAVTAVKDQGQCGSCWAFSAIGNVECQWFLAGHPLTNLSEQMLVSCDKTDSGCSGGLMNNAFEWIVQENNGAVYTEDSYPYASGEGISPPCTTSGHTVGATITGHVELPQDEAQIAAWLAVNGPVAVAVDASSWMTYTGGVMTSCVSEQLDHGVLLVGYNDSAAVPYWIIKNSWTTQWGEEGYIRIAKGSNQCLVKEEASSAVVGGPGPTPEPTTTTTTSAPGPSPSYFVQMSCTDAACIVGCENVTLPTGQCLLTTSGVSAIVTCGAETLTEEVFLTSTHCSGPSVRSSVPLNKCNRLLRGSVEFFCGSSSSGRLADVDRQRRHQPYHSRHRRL
#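 Read-out: AMC fluorescence (360 nm excitation, 450 nm emission), four reads over 2 min, first-to-third difference used. Conditions: cruzain 1.5 nM, Z-FR-AMC 2 uM, pH 5.5 acetate, 5 mM DTT, 0.01% Triton X-100.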
# MARV entry inh: inhibitors of Marburg virus binding or cell entry; AID 540276; hit rate 1.8% among 300,000; Potency, µM (highest dose often 37.8 µM), inactives show at the highest dose activity change, negative = inhibition, actives largely listed as inhibitors; Marburg virus pseudotyped entry inhibition, cell reporter; control for the full effect not named in the record; about a third of the inactives were read at about 46 µM; active = well fitted inhibition curve with a large enough effect; inconclusive = small, poorly fitted or top-dose-only effect, or effect the other way; inactive = flat fitted curve, though single readings scatter; tested in HEK293 cells; about a fifth of its hits are not listed in these tables; note: % is set by controls: 0 for no effect and ±100 for the full control effect; luciferase read-out
# 2A StopGo: lowers the luciferase signal of an FMDV 2A StopGo reporter; Potency, µM (titrated, usually from 57.9 µM), without a hit: at the highest dose signal change, negative = less light; hit rate 1.2% among 410,000; human cells with a luciferase reporter of 2A StopGo recoding; control for the full effect not named in the record; AID 1159524; active = well fitted falling curve with a large enough effect; inconclusive = small, poorly fitted or top-dose-only effect; inactive = no such curve, though single readings can be large or run the other way; tested in HEK293T cells; note: % is set by controls: 0 for no effect and ±100 for the full control effect; nearly all actives have a fitted effect of over 45% in size; luciferase light after 4 h
# Cruzain noTriton: cruzain (T. cruzi) inhibition without detergent | hit rate 2.3% among 200,000 | purified cruzain, Z-FR-AMC fluorescence, no detergent | P25779 | Potency, µM, for the others: max response, negative = inhibition, actives largely listed as inhibitors;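 note: plate controls were enzyme without inhibitor for no effect and buffer without enzyme for full effect; nearly all actives have a fitted effect of over 40% in size; top concentration of the series not given in the record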
#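 Detergent-free condition (0.00005% Triton X-100) in acetate buffer pH 5.5 with DTT. 1.5 nM enzyme and compound were pre-mixed 15 min, then 2 uM Z-FR-AMC substrate added; reaction progress from fluorescence change between first and third reads (60 s).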
# LASV entry inh: blocks Lassa virus binding to or entry into cells | Lassa virus pseudotype entry inhibition, cell reporter; control for the full effect not named in the record | Potency, µM (top dose mostly 37.9 µM), inactives show top-dose activity change, negative = inhibition, hits mostly inhibitors | hit rate 1.2% among 300,000 | AID 540256; active means well fitted inhibition curve with a large enough effect; inconclusive means small, poorly fitted or top-dose-only effect, or effect the other way; inactive means flat fitted curve, though single readings scatter; tested in HEK293 cells; note: % is set by controls: 0 for no effect and ±100 for the full control effect; nearly all actives have a fitted effect of over 50% in size; luciferase read-out
# SARS PLP yeast: inhibitors of SARS-CoV papain-like protease in yeast | S. cerevisiae expressing SARS-CoV PLpro, growth rescue; control for the full effect not named in the record | Potency, µM (doses to about 32.9 µM), for the others: at the top dose activity, positive = growth rescue | hit rate 0.19% among 330,000 | AID 485353; active means well fitted rising curve with a large enough effect; inconclusive means small, poorly fitted or top-dose-only effect; inactive means no such curve, though single readings can be large or run the other way; note: 0% is about no effect; nearly all actives have a fitted effect of over 55% in size; growth read by luminescence after 48 h
# * hit, by the source's call; ? = inconclusive; / = not tested or not shown; [ ] = dose if it differs, or a comment. Unless noted, calls come from the whole dose curve; as a rule, active = well fitted curve in the direction sought with a large enough effect; inconclusive = small, poorly fitted or top-dose-only effect, or another doubt; inactive = no such curve, though single readings can be large; an effect the other way counts as inactive or inconclusive. Potency is the fitted concentration of half-maximal effect.
# Screens in order – MARV entry inh	Cruzain noTriton	NS1 inh	RE007 growth inh	LASV entry inh	SARS PLP yeast	Cruzain inh Det	2A StopGo
- CC(=O)c1ccc(OCCCC(=O)NCC(c2ccco2)N(C)C)cc1 (stereo unspecified)
 : 2.4%	-3.3%	-5.4%	-6.7%	-10.8%	-2.3%	2.0%	8.2%
- CN(C)c1nc(Cl)nc(NCCOc2ccccc2)n1
 : 14.3%	13.3%	-5.0%	-8.0%	-0.1%	24.3%	4.0%	-10.7%
- CCC(C)Sc1nc2c(c(=O)[nH]c(=O)n2C)n1Cc1ccc(Cl)cc1 (stereo unspecified)
 : ?	1.4%	-14.3%	0.4%	?	-3.6%	-4.4%	?
- Nc1c(C(=O)NCc2ccco2)nnn1-c1ccccc1
 : 20.0%	-8.7%	0.7%	-9.9%	23.4%	-1.0%	5.1%	25.8%
- Cc1ccc(N2C(=O)NC(=O)/C(=C/c3cnc(-c4ccccc4)nc3)C2=O)cc1C
 : 14.2%	27.6%	4.7%	-14.4%	17.3%	12.6µM*	-3.7%	-10.9%
- Cc1ccc(NCCC(=O)c2cccc([N+](=O)[O-])c2)c(C)c1
 : 20.7%	-27.9%	-36.2%	5.62µM*	?	-32.4%	-10.0%	63.7%[activator]
- CCOc1ccccc1NC(=O)COc1ccc2c(c1)OCO2
 : ?	/	-32.9%	10.8%	0.7%[46.1 µM]	-3.3%	/	32.9%[activator]
- CCOc1ccccc1NC(=S)NC1CCCCC1
 : ?	-3.1%	-43.9%	/	?	3.0%	-3.2%	13.4%
- Cc1cccc(OC(C)C(=O)N2CCCc3ccccc32)c1 (stereo unspecified)
 : -19.4%	-0.1%	-4.6%	4.6%	?	0.4%	-6.4%	2.1%
- Cc1cc(NC(=O)CCC(=O)N(CC(=O)NCC2CCCO2)c2cccc(C)c2C)no1 (stereo unspecified)
 : 12.2%[46.1 µM]	/	-11.0%	0.2%	10.5%	1.6%	/	-13.2%
- Cc1cc(N2CCN(Cc3cn(C)nc3-c3cccc(Cl)c3)CC2)cc(C)n1
 : ?	/	1.6%	-2.2%	?	-1.3%	/	-21.6%
- COc1ccc(-c2cc(C(F)F)n3ncc(C(=O)N4CCN(C(=O)c5ccco5)CC4)c3n2)cc1
 : /	?	-9.8%	-6.6%	/	-3.1%	-13.1%	?
- COc1ccc(OC)c(NC(=S)NCCSc2ccc(C)cc2)c1
 : -19.4%	?	-54.8%	-0.6%	1.2%	-52.9%	?	-5.5%
- FC(F)(F)c1cc(-c2ccco2)nc(NCc2ccc(Cl)cc2)n1
 : ?	-6.2%	-147.3%	-17.5%	?	-22.7%	-22.9%	?
- Cc1ccc(C2CN(c3ccccc3)CC2C(=O)c2ccc(F)cc2)cc1 (stereo unspecified)
 : ?	-12.2%	4.7%	-9.0%	-26.3%	-24.6%	0.4%	?
- O=C(OCC(=O)N1CCCc2ccccc21)c1cccc(C(F)(F)F)c1
 : 25.8%	/	/	-22.0%	16.5%	-3.2%	/	-15.5%
- Cc1nnc(NC(=O)CSc2nnc(CNC(=O)c3ccccc3F)n2C(C)C)s1
 : 20.1%[46.1 µM]	/	/	0.3%	-1.9%	/	/	-15.5%
- COc1ccc(Cl)cc1NC(=O)Nc1ccc(Br)cn1
 : 5.7%	12.6µM*	8.0%	12.5%	5.6%	3.6%	0.4%	7.4%
- CCOc1ccc(CCNC(=O)C2CCCN(S(=O)(=O)N3CC(C)CC(C)C3)C2)cc1OCC (stereo unspecified)
 : ?	/	12.8%	-6.0%	25.1%[46.1 µM]	-2.7%	/	-19.4%
- COc1cccc(Cl)c1NC(=O)N1CCN(c2ccnc3cc(Cl)ccc23)CC1
 : /	/	-10.3%	-21.4%	/	-3.0%	/	-23.7%
- COc1ccccc1NC(=O)CN1CCN(C2c3ccccc3-c3ccccc32)CC1
 : ?	0.6%	-96.6%	-19.8%	?	?	-3.1%	?
- Cc1ccc(CNC(=O)c2ccc(COc3ccccc3)cc2)cc1
 : -4.4%	-9.0%	2.6%	?	?	0.9%	0.0%	14.5%
- CCOc1ccc(-c2cc(C(=O)N3CCC4(CC3)OCCO4)c3ccccc3n2)cc1
 : 10.8%[46.1 µM]	/	-32.5%	-12.0%	?	/	/	32.1%[activator]
- O=C(Cn1c(=O)oc2ccccc21)Nc1ccc(F)c(F)c1
 : /	/	1.6%	3.3%	/	-0.7%	/	-12.0%
- CCN1C(=O)/C(=C\N(C)C)S/C1=N\S(=O)(=O)c1ccc(C)cc1
 : -0.7%[46.1 µM]	/	/	11.9%	7.6%	-1.2%	/	-3.0%
- O=C(OCc1ccc([N+](=O)[O-])cc1)C1CC(=O)N(Cc2ccccc2Cl)C1 (stereo unspecified)
 : 6.2%[46.1 µM]	/	-28.2%	-1.8%	0.3%	-3.8%	/	-5.2%
- COc1ccc(-c2cn3c(n2)sc2cc(C(=O)NC(C)C45CC6CC(CC(C6)C4)C5)ccc23)cc1 (stereo unspecified)
 : /	13.3%	/	/	23.6%[46.1 µM]	/	-4.4%	29.7%
- Cc1cccc(C)c1OCc1cc(C(=O)N2CCC[C@H]2C(N)=O)no1
 : 16.6%	/	-9.2%	12.7%	4.2%	-1.8%	/	-5.0%
- COc1ccc(C(=O)N(C)Cc2ccccc2)cc1Br
 : -0.8%	-3.1%	-4.0%	/	/	?	0.1%	/
- NC(=O)[C@@H]1CCCN1Cc1nc(Cc2ccccc2Cl)no1
 : 9.7%[46.1 µM]	/	-0.3%	-9.6%	3.2%[46.1 µM]	-0.4%	/	-3.8%
- Cc1nc2nc(SCc3nc4ccccc4[nH]3)[nH]c2cc1Br
 : 12.0%[46.1 µM]	/	-5.4%	-9.9%	-6.1%[46.1 µM]	-1.3%	/	42.7%[activator]
- O=C(OCC(=O)N1c2ccccc2Sc2ccccc21)c1ccc[n+]([O-])c1
 : -6.5%[46.1 µM]	/	/	3.8%	2.4%[46.1 µM]	0.5%	/	-26.2%
- Cc1noc(C)c1-c1nnc(-c2ccc(OC(F)(F)F)cc2)o1
 : 5.4%	/	-0.4%	1.1%	-16.0%	1.1%	/	31.2%[activator]
- Cc1ccc(OCC(=O)Nc2cc(NC(=O)COc3ccc(C)c(C)c3)cc(C(=O)O)c2)cc1C
 : /	/	15.1%	15.6%	/	-6.3%	/	0.0%
- Cc1cccc(NS(=O)(=O)c2cc(C(=O)N3CCN(C)CC3)ccc2C)c1
 : 0.7%	-4.2%	9.3%	-5.7%	-0.6%	8.6%	10.0%	53.1%[activator]
- Cc1ccc(S(=O)(=O)NCCC(=O)NCc2cccnc2)cc1
 : /	/	11.8%	15.0%	/	24.2%	/	-0.4%
- COc1cccc(C(=O)COc2ccc3c(C)cc(=O)oc3c2)c1
 : /	/	-5.1%	-13.4%	/	0.3%	/	-14.6%
- O=C(CSc1nnnn1C1CCCC1)c1ccc2c(c1)OCCO2
 : ?	0.5%	-16.5%	-4.8%	-29.8%	-4.9%	-5.5%	/
- Cc1c(C(=O)NN2CCOCC2)oc2ccccc12
 : 23.1%[46.1 µM]	/	?	4.3%	-0.3%[46.1 µM]	-0.5%	/	14.9%
- CCCCc1ccc(-c2nc(N)n[nH]2)cc1
 : 0.1%	1.1%	-141.3%	9.3%	-1.9%	-38.4%	-6.6%	57.9%

# 3 entries picked at random from those above:
# Screens in order – MARV entry inh	Cruzain noTriton	NS1 inh	RE007 growth inh	LASV entry inh	SARS PLP yeast	Cruzain inh Det	2A StopGo
- CCOc1ccc(-c2cc(C(=O)N3CCC4(CC3)OCCO4)c3ccccc3n2)cc1
 : 10.8%[46.1 µM]	/	-32.5%	-12.0%	?	/	/	32.1%[activator]
- Cc1cccc(C)c1OCc1cc(C(=O)N2CCC[C@H]2C(N)=O)no1
 : 16.6%	/	-9.2%	12.7%	4.2%	-1.8%	/	-5.0%
- Cc1c(C(=O)NN2CCOCC2)oc2ccccc12
 : 23.1%[46.1 µM]	/	?	4.3%	-0.3%[46.1 µM]	-0.5%	/	14.9%

# Next results.
# Screens in order – MARV entry inh	Cruzain noTriton	NS1 inh	RE007 growth inh	LASV entry inh	SARS PLP yeast	Cruzain inh Det	2A StopGo
- CCN(CC)c1ccc(S(=O)(=O)N2CCOCC2)cc1NC(=O)CSc1cccc[n+]1[O-]
 : ?	-3.8%	-19.8%	/	5.7%	16.0%	-7.5%	-21.4%
- Cc1ccc(NC(=O)CSc2nc(=O)n(Cc3ccco3)c3c2CCC3)cc1F
 : /	-18.0%	/	/	4.7%[46.1 µM]	/	-4.3%	-21.7%
- COCCNC(=O)CSc1nnc(-c2ccccc2)c(-c2ccccc2)n1
 : ?	/	/	-6.7%	9.0%[46.1 µM]	0.9%	/	21.3%
- CC(C)(C)CC(=O)OCC(=O)Nc1cc(C(C)(C)C)nn1-c1ccccc1
 : -10.4%	19.6%	-10.8%	1.6%	-24.9%	-1.9%	-10.2%	-7.7%
- S=C(NCC1CCCO1)N1CCN(Cc2ccccc2)CC1 (stereo unspecified)
 : 2.7%[46.1 µM]	/	-1.3%	-19.4%	13.7%	-0.7%	/	15.0%
- CCCc1c(C(=O)OCC)[nH]c2c1C(=O)CCC2
 : /	-8.0%	-170.6%	-0.7%	/	-29.2%	0.6%	-12.2%
- O=C(Cc1ccsc1)NNC(=O)c1ccc(F)cc1
 : 12.9%	/	/	-1.9%	14.8%	-0.9%	/	16.9%
- COC(=O)c1ccccc1NC(=O)N[C@@H](C)C(=O)OC
 : 11.5%	-6.4%	-2.4%	4.1%	13.3%	-0.3%	-2.6%	12.9%
- CSCCC(NS(=O)(=O)c1cccs1)C(=O)NCc1cccs1 (stereo unspecified)
 : -10.0%	-4.4%	2.3%	-7.8%	-21.2%	1.0%	2.4%	-7.3%
- CCc1ccc(N2C(=O)CN(Cc3ccc(OC)c(OC)c3)C2=S)cc1
 : -6.1%	20.6%	-4.2%	9.3%	?	-4.0%	-3.0%	?
- O=C(NC1CSCC1OC(=O)c1ccccc1)c1ccccc1 (stereo unspecified)
 : /	/	-39.6%	8.5%	/	7.1%	/	-26.3%
